TRPML1 agonist: activates the human TRPML1 channel. hit rate 0.12% among 410,000. activation, % (test concentration not listed). TRPML1-expressing cells, Ca2+ dye fluorescence, FDSS; host cell line not named in the record; reference of the full effect not given here; in the data active = activation above about 50%; inconclusive = about 30% to 50%; inactive = below about 30%; further: 0% is about no effect; the text of the record puts the active cut at 80%
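In this qHTS format, compounds were pin-transferred onto Ca8-dye-loaded TRPML1-DL cells induced with Tet overnight, and intracellular Ca2+ fluorescence was recorded kinetically for 110 s after a 10 s baseline. A subsequent 4uM final 54-4 (EC80) addition followed by a second 110 s read served as the antagonist phase.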
TRPML1 blocker: inhibitors of human TRPML1 channel | Q9GZU1 | TRPML1-inducible cells, Ca2+ dye fluorescence, FDSS; stronger effect = lower value; inhibition of EC80 agonist-evoked calcium signal | activity change, negative = inhibition, % (concentration not given with the values) | hit rate 0.02% among 390,000 | AID 624415; in the data active means activity change below about -50%; inconclusive means about -30% to -50%; inactive means above about -30%;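 further: stimulus is agonist 54-4 at its EC80 concentration; on the % scale 0 is the no-effect control and ±100 the full control effect; compound concentration not given in the record; the text of the record puts the active cut at -80%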
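Calcium fluorescence in TRPML1-DL cells induced overnight with Tet: a 110 s read after compound pin addition, then a 110 s antagonist read after challenge with 54-4 at 4 uM final (EC80).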
D2 PAM: potentiates the human D2 dopamine receptor allosterically; P14416; DiscoveRx D2 beta-arrestin cells, luminescence, 90 min; 100% = 57 uM dopamine signal; potentiation, % (test concentration not listed); hit rate 0.23% among 360,000; active = potentiation of 50% or more; inconclusive = 30% to 50%; inactive = 30% or less;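 further: compound concentration not given in the record; tested on top of an EC20 dose of dopamine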
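PathHunter D2 cells, attached overnight at 37 deg C, received compound in DMSO plus dopamine at EC20 (50 nM final) for 90 min at 37 deg C. Beta-arrestin recruitment was read as luminescence after 1 h with detection reagent at ambient temperature.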
TRPV1 PAM: human TRPV1 potentiation | hit rate 0.02% among 320,000 | potentiation, % at 8.33 µM | Q8NER1 | TRPV1-expressing cells, Fluo-8 calcium influx, capsaicin EC20 potentiation; host cell line not named in the record; control for the full effect not named in the record; active means potentiation above 80%; inconclusive means 30% to 80%; inactive means below 30%; further: 0% is about no effect
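Fluo-8 calcium influx in TRPV1-expressing cells, kinetic read (ex 480/em 520 nm). Compound added and read 3 min for agonist activity, followed by capsaicin at EC20 final and 2 min further read for enhancement.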
Six1-Eya2 blk: inhibitors of human Six1/Eya2 interaction; AlphaScreen GST-Six1/His-Eya2 binding, biochemical; stronger effect = lower value; control for the full effect not named in the record; activity change, % (no concentration beside the values); hit rate 0.56% among 360,000; AID 651725; in the data active = activity change below about -65%; inconclusive = about -30% to -65%; inactive = above about -30%; further: on the % scale 0 is the no-effect control and ±100 the full control effect; compound concentration not given in the record
Target sequence (O00167 whole entry, looked up): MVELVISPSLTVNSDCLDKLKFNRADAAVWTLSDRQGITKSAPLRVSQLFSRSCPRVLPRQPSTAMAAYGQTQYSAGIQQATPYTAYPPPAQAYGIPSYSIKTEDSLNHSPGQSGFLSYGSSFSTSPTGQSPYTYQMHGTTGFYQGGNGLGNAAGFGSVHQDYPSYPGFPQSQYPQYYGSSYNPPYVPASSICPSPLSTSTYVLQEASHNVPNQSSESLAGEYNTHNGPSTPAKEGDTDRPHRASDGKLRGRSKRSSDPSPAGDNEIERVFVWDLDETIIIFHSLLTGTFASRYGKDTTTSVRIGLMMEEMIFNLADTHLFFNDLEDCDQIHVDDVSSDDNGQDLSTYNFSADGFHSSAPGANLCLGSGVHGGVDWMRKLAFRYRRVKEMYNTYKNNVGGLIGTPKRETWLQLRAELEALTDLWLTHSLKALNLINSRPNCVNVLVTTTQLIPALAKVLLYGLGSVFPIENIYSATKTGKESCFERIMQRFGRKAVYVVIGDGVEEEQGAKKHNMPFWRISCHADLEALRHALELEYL
Target sequence (Q15475 whole entry, looked up): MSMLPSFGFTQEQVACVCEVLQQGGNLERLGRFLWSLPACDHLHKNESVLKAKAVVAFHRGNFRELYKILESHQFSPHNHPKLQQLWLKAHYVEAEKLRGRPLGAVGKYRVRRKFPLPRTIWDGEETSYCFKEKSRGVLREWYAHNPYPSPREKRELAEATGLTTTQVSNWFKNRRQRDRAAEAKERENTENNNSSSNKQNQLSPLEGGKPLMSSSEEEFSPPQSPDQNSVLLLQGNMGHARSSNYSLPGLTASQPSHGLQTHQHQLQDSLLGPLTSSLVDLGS
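AlphaScreen with GST-Six1 and His-Eya2 (5X mix: 250 nM and 500 nM), glutathione donor and nickel acceptor beads; buffer 50 mM Tris pH 8.0, 300 mM NaCl, 1 mM TCEP; 1 h at 37 C in the dark.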
CtBP-E1A blk: inhibitors of CtBP/E1A interaction; AlphaScreen GST-E1A/His-CtBP binding, 1536-well; stronger effect = lower value; control for the full effect not named in the record; activity change, % (concentration not given with the values); hit rate 0.49% among 340,000; in the data active means activity change below about -65%; inconclusive means about -30% to -65%; inactive means above about -30%; further: on the % scale 0 is the no-effect control and ±100 the full control effect
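GST-E1A and His-tagged CtBP (125 nM each as 5X stock) were preincubated with pin-transferred compound for 2 h at 37 °C in the dark, then glutathione donor and nickel acceptor beads were added for 1 h before AlphaScreen reading.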
The depositor's hits bear a star; ? = inconclusive; nt = no result given; & = joins results of further samples.

The first 14 entries as a preview:
SMILES | TRPML1 agonist | TRPML1 blocker | D2 PAM | TRPV1 PAM | Six1-Eya2 blk | CtBP-E1A blk
COc1ccc(C(=O)Nc2ccc3oc(Cc4ccc(Cl)cc4)nc3c2)cc1OC | -1.3 | -3 | 2 | ? | 0 | -1
Cc1cccc(NC(=O)Oc2ccc(Cl)c3cccnc23)c1 | -0.6 | 21 | -22 | nt | -92* | ?
CCN1C(=O)/C(=C/C=C2/Sc3ccc4ccccc4c3N2CCO)SC1=S | 1.1 | 16 | -4 | 5 | -5 | -21
COc1ccc(-c2cc(C(=O)Nc3cc(C)on3)no2)cc1 | 0.2 | -9 | -9 | ? | 1 | 1
C#CCOCCOCCOCCNc1nc(N2CCN(C(=O)[C@H]([C@@H](C)CC)n3cc([C@@H](N)Cc4ccc(O)cc4)nn3)CC2)nc(N2CCN(C(=O)[C@H](CCCCN)n3cc([C@@H](N)C(C)CC)nn3)CC2)n1 (some centres undefined) | -0.2 | -6 | -24 | -3 | -15 | -23
Cc1cc(C)nc(N2CCCC(C(=O)NC3CC3)C2)n1 (centres undefined) | 0.6 | -12 | -2 | -1 | -1 | 3
CCN1CCN(c2ccc(S(=O)(=O)N3CCOCC3)cc2NC(=O)c2ccc(Cl)s2)CC1 | -0.1 | 11 | -14 | 5 | 0 | -3
O=C(Nc1ccc(Cl)c([N+](=O)[O-])c1)c1cnccn1 | 0.0 | -15 | 1 | -10 | -8 | -10
CC1=C(C(=O)OCc2ccccc2)C(c2cccnc2)c2c(n(C)c(=O)n(C)c2=O)N1 (centres undefined) | 0.3&-0.3 | -4&-13 | -9&6 | -9 | -3&-1 | -4&-6
O=C(COC(=O)c1ccc([N+](=O)[O-])cc1)Nc1cccnc1Cl | 0.1 | 19 | 9 | nt | 4 | 18
Cc1cc(Br)c(NC(=O)COC(=O)CSc2nnc(-c3ccc(Cl)cc3)o2)c(Br)c1 | 0.2 | 2 | -19 | 7 | -2 | 6
O=C1NN(c2ccccc2)C(=O)C1=Cc1ccccc1O | -0.5 | 0 | -19 | nt | -2 | -6
Cc1ccc(NC(=O)C(=O)NCCCN2CCOCC2)c(C)c1 | -0.5 | -12 | -3 | -6 | 5 | 3
COc1ccc(OC)c(C(c2nnnn2CC2CCCO2)N2CCN(C)CC2)c1 (centres undefined) | 0.4 | -7 | -7 | -4 | 6 | -4

This part in full, from the first entry:
SMILES | TRPML1 agonist | TRPML1 blocker | D2 PAM | TRPV1 PAM | Six1-Eya2 blk | CtBP-E1A blk
COc1ccc(C(=O)Nc2ccc3oc(Cc4ccc(Cl)cc4)nc3c2)cc1OC | -1.3 | -3 | 2 | ? | 0 | -1
Cc1cccc(NC(=O)Oc2ccc(Cl)c3cccnc23)c1 | -0.6 | 21 | -22 | nt | -92* | ?
CCN1C(=O)/C(=C/C=C2/Sc3ccc4ccccc4c3N2CCO)SC1=S | 1.1 | 16 | -4 | 5 | -5 | -21
COc1ccc(-c2cc(C(=O)Nc3cc(C)on3)no2)cc1 | 0.2 | -9 | -9 | ? | 1 | 1
C#CCOCCOCCOCCNc1nc(N2CCN(C(=O)[C@H]([C@@H](C)CC)n3cc([C@@H](N)Cc4ccc(O)cc4)nn3)CC2)nc(N2CCN(C(=O)[C@H](CCCCN)n3cc([C@@H](N)C(C)CC)nn3)CC2)n1 (some centres undefined) | -0.2 | -6 | -24 | -3 | -15 | -23
Cc1cc(C)nc(N2CCCC(C(=O)NC3CC3)C2)n1 (centres undefined) | 0.6 | -12 | -2 | -1 | -1 | 3
CCN1CCN(c2ccc(S(=O)(=O)N3CCOCC3)cc2NC(=O)c2ccc(Cl)s2)CC1 | -0.1 | 11 | -14 | 5 | 0 | -3
O=C(Nc1ccc(Cl)c([N+](=O)[O-])c1)c1cnccn1 | 0.0 | -15 | 1 | -10 | -8 | -10
CC1=C(C(=O)OCc2ccccc2)C(c2cccnc2)c2c(n(C)c(=O)n(C)c2=O)N1 (centres undefined) | 0.3&-0.3 | -4&-13 | -9&6 | -9 | -3&-1 | -4&-6
O=C(COC(=O)c1ccc([N+](=O)[O-])cc1)Nc1cccnc1Cl | 0.1 | 19 | 9 | nt | 4 | 18
Cc1cc(Br)c(NC(=O)COC(=O)CSc2nnc(-c3ccc(Cl)cc3)o2)c(Br)c1 | 0.2 | 2 | -19 | 7 | -2 | 6
O=C1NN(c2ccccc2)C(=O)C1=Cc1ccccc1O | -0.5 | 0 | -19 | nt | -2 | -6
Cc1ccc(NC(=O)C(=O)NCCCN2CCOCC2)c(C)c1 | -0.5 | -12 | -3 | -6 | 5 | 3
COc1ccc(OC)c(C(c2nnnn2CC2CCCO2)N2CCN(C)CC2)c1 (centres undefined) | 0.4 | -7 | -7 | -4 | 6 | -4
CN(C)c1nnc(-c2ccc(Cl)cc2)o1 | -1.0 | 7 | 5 | -6 | 4 | 2
Cc1cccc(OCc2nnc(SCC(=O)Nc3cccc(C(=O)N4CCOCC4)c3)n2C)c1C | 0.8 | 8 | -12 | 10 | -10 | -1
CC(c1nccs1)N(C)C(=O)c1ccc(OC2CCN(CCc3ccccc3)CC2)cc1 (centres undefined) | 0.0 | -2 | -36 | 6 | 0 | -7
Cc1ccc(C(=O)N2CCN(Cc3nc4sc5c(c4c(=O)[nH]3)CCCC5)CC2)cc1 | -1.4 | 30 | -10 | 7 | 0 | -16
COc1cccc(C2(O)CCN(C(=O)C(C)C)CC2)c1 | -0.4 | -8 | -5 | 1 | 5 | nt
COc1cccc(OC)c1C(=O)N1CCN(C(=O)c2ccc(-c3ccccc3)cc2)CC1 | -0.3 | -2 | -16 | -4 | -3 | -3
Cc1nc(SCC(=O)NC2CCCCC2)[nH]c(=O)c1C | 1.0 | 37 | 0 | 9 | 3 | 5
CC(C)[C@H]1COCCS(=O)(=O)N1Cc1cccc(Cl)c1 | 0.4&-0.3 | 16 | 0 | -13 | -1 | 8
CCN(CC)CCNS(=O)(=O)c1ccc2c3c(cccc13)C(=O)N2 | -1.3 | 4 | -26 | -7 | -16 | 7
COc1ccc(N2CCN(C(=O)c3cc(=O)[nH]c4ccccc34)CC2)cc1 | 0.0 | 16 | 2 | 2 | -2 | nt
Cc1cn(C2OC(COC(=O)c3ccccc3)C(OC(=O)c3ccccc3)C2OC(=O)c2ccccc2)c(=O)[nH]c1=O (centres undefined) | 2.1 | 31 | -6 | ? | -9 | -6
Cc1ccc2[nH]c(=O)c3cc(C(=O)N(C)c4ccccc4C)sc3c2c1 | -0.1 | 5 | -8 | -12 | -2 | nt
O=C(CSc1nnc(-c2ccccc2O)n1Cc1ccccc1)NNC(=O)c1ccccc1O | 3.1 | -1 | 6 | 5 | -16 | ?
C=CCSc1nsc(NC(=O)Nc2cccc(C(C)=O)c2)n1 | 0.0 | -7 | -5 | 5 | 1 | 1
CCCCn1nc(NS(=O)(=O)c2cccc3nonc23)c2cc3cccc(C)c3nc21 | 4.4 | -14 | -14 | 0 | -10 | nt
Cc1cc(=O)n2[nH]c(NCc3ccccc3F)nc2n1 | 1.4 | 10 | -2 | 0 | -9 | -10
Cc1ccc(-c2cc(C(=O)O)c3sc(N4CCCCC4)nc3n2)cc1 | 0.3 | 16 | -21 | 1 | 5 | -3
CC(=O)c1ccc(NC(=S)Nc2ccc3[nH]c(=O)[nH]c3c2)cc1 | 0.2 | 2 | -7 | 3 | 3 | nt
CCOC(=O)C1CCN(C(=O)CCS(=O)(=O)Cc2ccccc2)CC1 | 0.6 | 3 | -1 | 3 | -2 | 3
CCOC(=O)c1c(NC(=O)C(=O)N/N=C/c2ccccc2OC)sc2c1CCCCC2 | -0.3 | -1 | -9 | 2 | 1 | 10
CCCCC1(C)NC(=O)N(CC(=O)N2CCc3ccccc32)C1=O (centres undefined) | -0.4 | -11 | -4 | nt | 0 | 4
Cc1nn(-c2ccccc2Cl)c(Cl)c1/C=C(\C#N)C(N)=O | 1.8 | 14 | 5 | 28 | 0 | 0
Cc1ccc(CNC(=O)c2ccc(Cn3cc(-c4ccc(C)cc4)nc3-c3ccncc3)cc2)cc1 | 0.2 | 6 | -53 | 3 | -10 | -4
O=C(NC1CCCCCC1)c1cccnc1Sc1ccc(Cl)cc1 | 0.3 | 2 | -19 | 0 | 1 | 6
COCCNC(=O)CCC1CCN(Cc2ccc(-c3ccccc3)cc2)CC1 | 0.7 | -2 | -22 | 0 | -2 | 7
COCc1nnc(NC(=O)c2ccccc2Oc2ccccc2)s1 | 0.5 | 24 | -5 | -9 | 11 | -1
COc1ccccc1CNC(=O)c1[nH]c(C)c(C(C)=O)c1C | -0.7 | 4 | 1 | -8 | 0 | -2
COCOc1cccc(CN2CCC2(C)C(=O)Nc2ccc(OC)c(OC)c2)c1 (centres undefined) | -1.0 | nt | -2 | nt | 0 | 0
O=C(NN1CCOCC1)c1ccc([N+](=O)[O-])cc1 | -0.6 | -10 | 10 | -8 | 2 | nt
Cc1nc2ccccn2c1-c1ccnc(SCc2ccc(Cl)cc2)n1 | 2.6 | 25 | -9 | nt | 4 | 3
CN(C)CCNc1ccc(-c2nn(C)c(=O)c3ccccc23)cc1[N+](=O)[O-] | 0.4 | -1 | -4 | 2 | -11 | -18
Cc1ccc(S(=O)(=O)N2CCOCC2)cc1NC(=O)COC(=O)c1cc[n+]([O-])cc1 | 0.0 | -13 | -2 | -45 | 9 | 7
CCCn1c(C(C)Nc2nc(-c3ccc(C)cc3)cs2)nc2cc(Cl)c(Cl)cc21 (centres undefined) | -1.3 | -4 | -3 | -19 | -7 | -4
Cc1c(Cl)c([N+](=O)[O-])nn1CCCC(=O)Nc1cc(Oc2ccccc2)cc([N+](=O)[O-])c1 | 0.2 | -5 | -17 | 2 | -9 | 0
CCCCCC(=O)N/N=C/c1cc(Br)c(O)c(OC)c1 | 0.0 | -14 | -2 | 2 | 0 | 5
COc1ccc(C(C)=O)cc1COC(=O)c1cc2ccccc2cc1O | 0.0 | -2 | -5 | ? | 6 | 8
COC(=O)c1ccc(C(C(=O)NC2CCCCC2)N(Cc2ccc(F)cc2)C(=O)Cc2cccs2)cc1 (centres undefined) | 3.5 | 49 | -10 | 7 | 4 | -14
COc1ccc(C(=O)Nc2nnc(S(=O)(=O)Cc3ccccc3)s2)cc1 | -0.4 | -7 | -4 | 21 | 2 | -9
CCCN(C(=O)c1ccco1)c1nnc(-c2cccc(C)c2)s1 | 2.3 | -5 | -11 | -8 | 3 | nt
Cc1ccc(-c2ccc(=O)n(CCC(=O)N3CCN(c4cccc(C)c4)C(C)C3)n2)cc1 (centres undefined) | 4.2 | 2 | -12 | -13 | -11 | nt
CCOC(=O)c1cnc2cc(C)ccn2c1=O | -0.3 | 4 | -13 | -12 | -2 | 1
Cc1ccc(C)c(NC(=O)C(c2ccccc2)N2CCN(CC(=O)N3CCOCC3)CC2)c1 (centres undefined) | 0.7 | -9 | -5 | nt | 0 | -21

Assay outcomes from PubChem BioAssay.
